Compound activity deposited in PubChem by National Center for Advancing Translational Sciences (NCATS).
miR-21 reporter – miR-21 reporter, rising signal | Potency, µM (series often up to 38.3 µM), without a hit: at the highest dose reporter change, positive = more light | HeLa miR-21 FLuc reporter, luciferase, 48 h | 340,000 tested, under 10 active; active = well fitted rising curve with a large enough effect; inconclusive = small, poorly fitted or top-dose-only effect; inactive = no such curve, though single readings can be large or run the other way;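 also: % of control where 0% means no effect; miR-21 action dims this reporter so a rising signal means less miR-21 action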
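HeLa cells stably expressing CMV-driven firefly luciferase with a downstream miR-21 binding sequence, endogenously expressing miR-21, were treated with titrations (up to about 40uM final) for 48 hours at 37 degree Celsius. Luciferase luminescence was read after lysis.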
Starred values were filed as active, the others as inactive; ? = inconclusive. This is a subset (hit frequency here may not be typical).

Start of the listing, in advance:
smiles: Cc1ccc(NCc2cccn2-c2nnc(N3CCC(C(=O)NCc4ccc(F)cc4)CC3)s2)cc1
- miR-21 reporter: 22%
smiles: CCn1nnc2cc(C(=O)Nc3ccc(Br)cc3F)ccc21
- miR-21 reporter: -47%
smiles: O=C(Nc1ccc(S(=O)(=O)N2CCCCC2c2cccnc2)cc1)c1ccc(F)cc1 (stereo not given)
- miR-21 reporter: ?
smiles: COc1ccc(OC)c2sc(N(Cc3cccnc3)C(C)=O)nc12
- miR-21 reporter: -12%
smiles: CCOc1ccc(-c2cc(NC(=O)c3ccc(C)cc3)c(C(=O)OC)s2)cc1
- miR-21 reporter: 3%

This part in full (from the top)
smiles: Cc1ccc(NCc2cccn2-c2nnc(N3CCC(C(=O)NCc4ccc(F)cc4)CC3)s2)cc1
- miR-21 reporter: 22%
smiles: CCn1nnc2cc(C(=O)Nc3ccc(Br)cc3F)ccc21
- miR-21 reporter: -47%
smiles: O=C(Nc1ccc(S(=O)(=O)N2CCCCC2c2cccnc2)cc1)c1ccc(F)cc1 (stereo not given)
- miR-21 reporter: ?
smiles: COc1ccc(OC)c2sc(N(Cc3cccnc3)C(C)=O)nc12
- miR-21 reporter: -12%
smiles: CCOc1ccc(-c2cc(NC(=O)c3ccc(C)cc3)c(C(=O)OC)s2)cc1
- miR-21 reporter: 3%
smiles: COc1ccc2[nH]cc(CCNC(=O)Nc3cc(C)cc(C)c3)c2c1
- miR-21 reporter: ?
smiles: COc1cc(CN(C(=O)COc2ccccc2)c2ccccn2)cc(OC)c1OC
- miR-21 reporter: -4%
smiles: O=C(Nc1nnc(S(=O)(=O)N2CCc3ccccc32)s1)c1ccccc1
- miR-21 reporter: -1%
smiles: CCOC(=O)c1c(S(=O)(=O)N2CCC(C(=O)Nc3ccc(C)cc3C)CC2)c(C)n(C)c1C
- miR-21 reporter: 5%
smiles: Cc1ccc2c(c1)C(c1ccc(F)cc1)N(C(=O)c1ccc(OC(C)C)cc1)CC(=O)N2 (stereo not given)
- miR-21 reporter: 30%

Sorted by the number under miR-21 reporter (lowest first): some entries from above.
smiles: CCn1nnc2cc(C(=O)Nc3ccc(Br)cc3F)ccc21
- miR-21 reporter: -47%
smiles: COc1cc(CN(C(=O)COc2ccccc2)c2ccccn2)cc(OC)c1OC
- miR-21 reporter: -4%
smiles: O=C(Nc1nnc(S(=O)(=O)N2CCc3ccccc32)s1)c1ccccc1
- miR-21 reporter: -1%
smiles: CCOC(=O)c1c(S(=O)(=O)N2CCC(C(=O)Nc3ccc(C)cc3C)CC2)c(C)n(C)c1C
- miR-21 reporter: 5%
smiles: Cc1ccc(NCc2cccn2-c2nnc(N3CCC(C(=O)NCc4ccc(F)cc4)CC3)s2)cc1
- miR-21 reporter: 22%
smiles: Cc1ccc2c(c1)C(c1ccc(F)cc1)N(C(=O)c1ccc(OC(C)C)cc1)CC(=O)N2 (stereo not given)
- miR-21 reporter: 30%

(cont.)
smiles: COc1cc(NC(=O)c2cc(C3CC3)nc3c2c(C)nn3-c2ccccc2)cc(OC)c1
- miR-21 reporter: 9%
smiles: COc1ccccc1C(=O)OCc1cc(=O)n2nc(C(C)C)sc2n1
- miR-21 reporter: -25%
smiles: Cc1ccc(C)c(OCC(=O)Nc2sc3c(c2C#N)CCCC3)c1C
- miR-21 reporter: -1%
smiles: Cc1nn(-c2ccccc2)c2sc(C(=O)Nc3ccc(Cl)cc3Cl)cc12
- miR-21 reporter: -6%
smiles: O=C1CCSc2ccc(S(=O)(=O)Nc3cccc(C(F)(F)F)c3)cc2N1
- miR-21 reporter: -1%
smiles: CCCOc1ccc(C(=O)Nc2cccc(NC(=O)c3ccc(Cl)cc3Cl)c2)cc1
- miR-21 reporter: -20%
smiles: CCOC(=O)c1c(C)n(-c2ccccc2)c2ccc(OC(=O)c3cccc(OC)c3OC)cc12
- miR-21 reporter: -18%
smiles: Cc1c(CNC2CCCCC2)c(C(=O)O)c(C)n1Cc1cccc(Cl)c1
- miR-21 reporter: -2%
smiles: Cc1ccc2nc(N3CCN(c4cccc(C)c4C)CC3)c3nncn3c2c1
- miR-21 reporter: 4%
smiles: CCCCS(=O)(=O)c1oc(-c2cccs2)nc1S(=O)(=O)c1ccccc1
- miR-21 reporter: ?

smiles: CCOC(=O)c1c(NC(=O)c2nc(S(C)(=O)=O)ncc2Cl)sc(C(C)=O)c1C
- miR-21 reporter: -6%
smiles: COc1ccc(CCNC(=O)CCCn2c(=O)c3cccn3c3ccccc32)cc1OC
- miR-21 reporter: -9%
smiles: COc1cccc2c1Oc1ncccc1N(C(=O)Nc1ccc(F)c(Cl)c1)C2
- miR-21 reporter: -12%
smiles: CCCCC(Sc1nc2cc3c(cc2c(=O)n1CCCC(=O)NCc1ccc2c(c1)OCO2)OCO3)C(=O)OCC (stereo not given)
- miR-21 reporter: -1%
smiles: COc1ccc(-c2ccc(CCC(=O)O)n2CC(=O)Nc2cccc(C(F)(F)F)c2)cc1
- miR-21 reporter: 2%
smiles: CCNc1ccc(-c2nc(-c3ccncc3)no2)cc1[N+](=O)[O-]
- miR-21 reporter: 7%
smiles: COc1cc(CN(C(=O)COc2ccc(Cl)cc2)c2ccccn2)cc(OC)c1OC
- miR-21 reporter: -6%
smiles: CCOc1ccc(N(CC)S(=O)(=O)N2CCCC(C(=O)NCc3ccc(SC)cc3)C2)cc1 (stereo not given)
- miR-21 reporter: 28%
smiles: Cc1ccc(CNC(=O)c2ccc3c(O)c(S(=O)(=O)c4ccccc4)c(=O)[nH]c3c2)cc1
- miR-21 reporter: -1%
smiles: Cc1ccc(N(Cc2cccs2)C(=O)c2ccc(Br)o2)cc1
- miR-21 reporter: -7%
smiles: COc1ccccc1CNC(=O)C1CCC(CNS(=O)(=O)c2ccc3c(c2)CCCC(=O)N3)CC1 (stereo not given)
- miR-21 reporter: 11%
